Screening results: PubChem, National Center for Advancing Translational Sciences (NCATS)
EPAC2 antag: Validation qHTS for antagonist of cAMP-regulated guanine nucleotide exchange factor 4 (EPAC2). Potency, µM (top dose mostly 112 µM), inactives show at the top dose activity, negative = inhibition, most hits filed as inhibitors. AID 1645886, 2021. Rap guanine nucleotide exchange factor 4 (Homo sapiens), Q8WZA2. EPAC2 Rap1B BODIPY-GDP exchange, fluorescence. actives 1.7% (n = 16,000); active = well fitted inhibition curve with a large enough effect; inconclusive = small, poorly fitted or top-dose-only effect; inactive = no such curve, though single readings can be large or run the other way;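 also: 100% = activation by cAMP agonist control; nearly all actives have a fitted effect of over 40% in size; the record reuses the description of the EPAC1 agonist screen; inactives centre near -10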
Target sequence (Q8WZA2 whole entry, looked up): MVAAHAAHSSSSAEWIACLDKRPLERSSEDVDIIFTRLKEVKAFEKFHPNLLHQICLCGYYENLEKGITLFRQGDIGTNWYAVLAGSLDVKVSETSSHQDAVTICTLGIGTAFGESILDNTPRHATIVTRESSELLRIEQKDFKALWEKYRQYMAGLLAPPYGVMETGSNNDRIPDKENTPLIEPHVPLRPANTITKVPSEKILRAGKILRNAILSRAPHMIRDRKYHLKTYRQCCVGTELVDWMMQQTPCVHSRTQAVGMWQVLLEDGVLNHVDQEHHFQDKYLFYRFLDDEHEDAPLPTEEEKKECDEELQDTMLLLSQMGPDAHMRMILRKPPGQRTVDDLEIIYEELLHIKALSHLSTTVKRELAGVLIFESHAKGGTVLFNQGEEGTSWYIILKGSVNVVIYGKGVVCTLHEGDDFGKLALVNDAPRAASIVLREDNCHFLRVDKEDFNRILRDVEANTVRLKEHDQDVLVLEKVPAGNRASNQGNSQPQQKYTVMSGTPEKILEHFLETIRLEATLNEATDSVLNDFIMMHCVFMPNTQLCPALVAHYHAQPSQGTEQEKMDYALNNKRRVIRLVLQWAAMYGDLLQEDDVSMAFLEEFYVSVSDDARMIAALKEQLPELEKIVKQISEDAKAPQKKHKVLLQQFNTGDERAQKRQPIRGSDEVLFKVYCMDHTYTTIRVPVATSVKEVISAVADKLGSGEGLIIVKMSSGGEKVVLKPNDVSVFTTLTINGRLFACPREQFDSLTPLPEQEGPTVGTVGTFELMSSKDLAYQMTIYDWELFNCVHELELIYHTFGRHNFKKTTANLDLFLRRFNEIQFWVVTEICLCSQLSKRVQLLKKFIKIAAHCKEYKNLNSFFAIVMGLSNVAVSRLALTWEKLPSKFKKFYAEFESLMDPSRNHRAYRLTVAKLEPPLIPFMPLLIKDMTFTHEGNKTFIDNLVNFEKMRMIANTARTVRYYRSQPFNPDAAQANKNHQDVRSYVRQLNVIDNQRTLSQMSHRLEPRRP
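Normalized against a 6.5 mM cAMP agonist control, compounds were tested on 100 nM EPAC2 exchanging Rap1B-bound BODIPY-GDP (250 nM) for 50 uM GDP. Fluorescence drop (ex 480, em 540 nm) was tracked at room temperature over 30 min at 5-min intervals.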
The depositor's hits bear a star; ? = inconclusive; & = joins results of further samples; [ ] = dose if it differs, or a comment. Potency is read from the fitted curve at half-maximal effect.

SMILES	EPAC2 antag
CS(=O)(=O)Nc1cccc(-c2nccc(Nc3ccc(F)cc3)n2)c1	-14%
Cc1nc2ccc(C(=O)NCC3CCC4(CCN(Cc5cccnc5)CC4)O3)cc2nc1C (centres undefined)	-5%
CCNc1ncc2nc(-c3ccc(Cl)cc3)c(=O)n(-c3ccc(OC)cc3)c2n1	-9%
CCCCNC(=O)NS(=O)(=O)c1ccc(N)cc1	20%
O=C(NCCc1ccncc1)c1cnn(-c2ncc3c(n2)-c2ccccc2CCC3)c1C1CC1	-3%
CC(C(=O)O)c1ccc(CC2CCCC2=O)cc1 (centres undefined)	5%&7%
O=c1cnc2cnc(N3CCNCC3)nc2n1C1CC1	2%
NCCNC(=O)Cc1ccc(NC(=O)Cc2ccc(Nc3ncnc4c3ncn4[C@@H]3O[C@H](CO)[C@@H](O)[C@H]3O)cc2)cc1	-22%
C[N+]1(CC(=O)c2ccccc2)CCc2ccccc2C1 (centres undefined)	?
COc1c(-c2coc3cc4c(cc3c2=O)CC(OC(C)=O)C(C)(C)O4)ccc2c1C=CC(C)(C)O2 (centres undefined)	?
COc1cc(=O)n2c(c1C(=O)N(C)Cc1nccs1)CCN(Cc1cc(C)cc(C)c1)CC2	6%
CC(C)c1c(C(=O)N2CCN(CCO)CC2)cnn1-c1nccc(-c2cccs2)n1	-24%
COc1ccc(CN2CCC(=O)N([C@H](CO)Cc3ccccc3)CC2)cc1OC	-38%
CO/N=C(\C(=O)N[C@@H]1C(=O)N2C(C(=O)O)=C(COC(C)=O)CS[C@H]12)c1csc(N)n1 (stereo in doubt)	14%
COc1ccc(Oc2ncc3nc(-c4ccc(OC)cc4)c(=O)n(C4CC4)c3n2)cc1	7%
CC[N+]1(C)C2CCC1CC(OC(=O)[C@H]1CCC(C(=O)OC3CC4CCC(C3)[N+]4(C)CC)(c3ccccc3)c3ccccc31)C2 (some centres undefined)	-7%
Cc1ccnc2c1NC(=O)c1cccnc1N2C1CC1	-2%
O=c1cc(N2CCOCC2)oc2c(-c3ccccc3)cccc12	?
N#Cc1ccc(CN2CCC3(CC2)CCN(C(=O)c2ccco2)CC3)cc1	-8%
COc1ccc(CCNCC(O)COc2cccc(C)c2)cc1OC (centres undefined)	10%
CC(=O)OC1CC(O)C(C)(C)C2CC(OC(C)=O)[C@]3(C)C(CC[C@@]4(C)C(c5ccoc5)OC(=O)C5OC534)[C@]12C (some centres undefined)	-9%
CC(C)(C)[C@]1(O)CCN2C[C@H]3c4ccccc4CCc4cccc(c43)[C@@H]2C1	?
CCC1C(=O)NCCN1Cc1ccc2c(c1)CN(Cc1cccc(OC)c1)CCO2 (centres undefined)	0%
CSc1ccc2cc(CNCc3ccccc3F)c(N3CCCC(CO)C3)nc2c1 (centres undefined)	-2%
CSc1ccc2c(c1)C(N1CCN(C)CC1)Cc1ccccc1S2 (centres undefined)	-30%&-17%&-10%
COc1ccccc1-n1cc(C(=O)NCCN2Cc3ccccc3OC(c3ccsc3)C2)cn1 (centres undefined)	?
COc1cccc(-c2cncnc2NCc2cccc(C)c2)c1	?
COc1ccc(-c2nc3cnc(N4CCNCC4)nc3n(CCc3ccccc3)c2=O)cc1	-22%
CCCCC/C=C\C/C=C\CCCCCCCC(=O)NCC(=O)O	-16%[11.4 µM]
Cc1noc(C)c1C(=O)N1CCC2(CC1)CN(c1ccccn1)C2	-27%
COc1ccc(CN2CCOc3ccc(C(O)c4cccnc4)cc3C2)cc1 (centres undefined)	-10%
O=C(NCCN1CCOCC1)c1cnn(-c2nccc(-c3cc4ccccc4o3)n2)c1C1CC1	12%
COc1cccc(N(C)C(=S)Oc2ccc3c(c2)CCCC3)n1	-15%
Clc1ccccc1-c1nc(NCc2cccs2)c2ccccc2n1	-32%
C=CCn1c(=O)c2c(nc(-c3ccc(S(=O)(=O)O)cc3)n2C)n(C)c1=O	-10%&-4%
N[C@H]1CCN(O)C1=O	-13%
CC(C)c1ccc2c(c1)CCC1C(C)(C(N)=O)CCCC21C (centres undefined)	?
O=c1c(-c2ccc(Cl)cc2)nc2cnc(N3CCOCC3)nc2n1C[C@H]1CCCO1	-15%
Cc1cc[n+](C2CCCCC2)cc1	-9%
C=CC(C1=CC(=O)C(OC)=CC1=O)c1ccc(OC)cc1 (centres undefined)	?

Three entries from above, with each value named:
COc1c(-c2coc3cc4c(cc3c2=O)CC(OC(C)=O)C(C)(C)O4)ccc2c1C=CC(C)(C)O2 (centres undefined)
- EPAC2 antag = ?

COc1cc(=O)n2c(c1C(=O)N(C)Cc1nccs1)CCN(Cc1cc(C)cc(C)c1)CC2
- EPAC2 antag = 6%

CC(C)c1c(C(=O)N2CCN(CCO)CC2)cnn1-c1nccc(-c2cccs2)n1
- EPAC2 antag = -24%

Quoted from the listing:
EPAC2 antag, Cc1noc(C)c1C(=O)N1CCC2(CC1)CN(c1ccccn1)C2 stands at -27%
EPAC2 antag, CSc1ccc2cc(CNCc3ccccc3F)c(N3CCCC(CO)C3)nc2c1 (centres undefined) stands at -2%
EPAC2 antag, COc1cccc(N(C)C(=S)Oc2ccc3c(c2)CCCC3)n1 stands at -15%

Following part:
SMILES	EPAC2 antag
CC(=O)O[C@H]1CC2(C)[C@@H](C[C@@H](O)[C@H]3[C@@]4(C)CC[C@@H](O)[C@@H](C)[C@@H]4CC[C@@]32C)C1=C(CCC=C(C)C)C(=O)O (some centres undefined)	3%
COc1cccc(-c2ccc3ncnc(NCc4ccc(OC)cc4OC)c3c2)c1	-15%
CCN(CC)C(=O)c1cccc(C)c1	-8%
O=C(/C=C/c1ccc(O)c(O)c1)O[C@@H]1C[C@@](OC(=O)/C=C/c2ccc(O)c(O)c2)(C(=O)O)C[C@@H](O)[C@@H]1O	9%
CCCCCCCCCCC[C@@H](C[C@@H]1OC(=O)[C@H]1CCCCCC)OC(=O)[C@H](CC(C)C)NC=O	-17%
COc1ccc(-c2nc3cnc(N4CCN(C)CC4)nc3n(CCc3ccccc3)c2=O)cc1	54%[activator]
COc1cc(=O)n2c(c1C(=O)N(C)Cc1nonc1C)CCN(Cc1cc(C)ccc1C)CC2	-5%
c1ccc2ccccc2c1	7%
COCc1ccc(CN2Cc3ccccc3OC(c3ccccc3F)C2)o1 (centres undefined)	?
COCCc1ccc(OCC(O)CNC(C)C)cc1 (centres undefined)	-20%&19%&84%&9%&-15%
CCN1CCCC1CNC(=O)c1cnn(-c2ncc(C)c(-c3ccc(F)cc3)n2)c1C(C)C (centres undefined)	-15%
COCCn1c(=O)c(-c2cc(F)cc(F)c2)nc2cnc(N3CCN(C)CC3)nc21	4%
CCC(C)N(C)C(=O)c1cc2ccccc2c(-c2ccccc2Cl)n1 (centres undefined)	-22%&-36%
Cc1cnc(C)c(-c2ccc(O)c(CN3CCN(C=O)CC3)c2)n1	-6%
CCC12C(=Nc3c(Cl)cccc31)C[C@@H]1CCN3C(=O)CCC[C@H]2[C@H]13 (some centres undefined)	5%
CCNc1ncc2nc(CCc3ccccc3)c(=O)n(-c3ccccc3)c2n1	-20%
O=C(C[N+]12CN3CN(CN(C3)C1)C2)c1ccc(Br)cc1	-37%
CC(=O)N1CCC[C@H]1C(=O)NCC1Cc2cc(C)cc(-c3ccc(Cl)cc3)c2O1 (some centres undefined)	-10%
COc1cc(CN2CCCC(n3cc(C(=O)N4CCCCC4)nn3)C2)cc2c1OCO2 (centres undefined)	-20%
COc1ncc2nc(C)c(=O)n(CCc3ccccc3)c2n1	-14%
Cc1cc(C)cc(C(=O)C[n+]2cccc(Br)c2)c1	-18%
CCc1ccc(C(=O)C(C)CN2CCCCC2)cc1 (centres undefined)	-14%
CCc1ccc2c(c1)N(CC(C)CN(C)C)c1ccccc1S2 (centres undefined)	-19%
CC[C@H](c1ccc(O)cc1)[C@@H](CC)c1ccc(O)cc1	?
CCCCCCN(CCCCCC)C(=O)Cc1c(-c2ccc(F)cc2)[nH]c2ccccc12	?
O=c1c(-c2ccc(F)cc2)nc2cnc(N3CCOCC3)nc2n1CCc1ccccc1	5%
CC(=O)OC1CC(OC(C)=O)[C@]2(C)C(CC(=O)[C@]3(C)C2CC[C@@]2(C)C(c4ccoc4)OC(=O)C4O[C@@]423)C1(C)C (some centres undefined)	-1%
COc1ccccc1CN1CCCC2(CCN(C(=O)c3ccncc3)CC2)C1	-8%
CCCCC/C=C\C/C=C\CCCCCCCC(=O)O[C@@H](CO)COC(=O)CCCCCCCCCCCCCCCCC	?
CN(C)c1ncc2nc(-c3cccs3)c(=O)n(-c3ccccc3)c2n1	-6%
COc1ccc(CNc2nc(-c3ccccc3CN(C)C)nc3ccccc23)c(OC)c1	-25%
Cc1cc(C)n(Cc2cccc(C(=O)NCC3Cc4cccc(-c5ncccn5)c4O3)c2)n1 (centres undefined)	-31%
CC(=O)N1CCC2(CC1)CCN(c1ccccn1)CC2	-5%
CC(C)=CCN1CCC2(CCc3ccccc32)CC1	4%
CC(=O)OC1CCC2(C)C(CCC3(C)C2C(=O)C=C2C4CC(C)(C(=O)OCCN5CCCCC5)CCC4(C)CCC23C)C1(C)C (centres undefined)	-12%
COc1ccc(CCNC(=O)c2cnn(-c3nccc(-c4ccco4)n3)c2C)cc1	-3%
C=C(CO)C1Cc2c(ccc3c2OC2COc4cc(OC)c(OC)cc4C2C3=O)O1 (centres undefined)	-14%
O=C([C@@H]1CC=C[C@@H]2CCN(C3CCCCC3)C(=O)[C@@H]21)N1CCOCC1	1%
C#CC(N)CCC(=O)O (centres undefined)	-1%
CCC1CN(CCNC(=O)C2CCCCN2C)Cc2cc(OC)ccc2O1 (centres undefined)	-11%

Retrieved one by one from the list above:
SMILES	EPAC2 antag
CC[C@H](c1ccc(O)cc1)[C@@H](CC)c1ccc(O)cc1	?
Cc1cc(C)n(Cc2cccc(C(=O)NCC3Cc4cccc(-c5ncccn5)c4O3)c2)n1 (centres undefined)	-31%
CC(=O)OC1CCC2(C)C(CCC3(C)C2C(=O)C=C2C4CC(C)(C(=O)OCCN5CCCCC5)CCC4(C)CCC23C)C1(C)C (centres undefined)	-12%

Next section.
SMILES	EPAC2 antag
CN(C)c1ncc2nc(-c3cc(F)cc(F)c3)c(=O)n(CCc3ccccc3)c2n1	-25%
CS(=O)(=O)N1CCC2(CCCN(Cc3ccc(C#N)cc3)C2)CC1	-14%
CC(=O)OCC(=O)[C@@]12OC(C)(C)O[C@@H]1C[C@H]1[C@@H]3C[C@H](F)C4=CC(=O)C=C[C@]4(C)[C@@]3(F)[C@@H](O)C[C@@]12C	-19%[56.6 µM]
OCC(CO)N[C@H]1C[C@](O)(CO)[C@@H](O)[C@H](O)[C@H]1O	-20%
CC(C)NC[C@@H](O)COc1ccccc1-n1cccc1	-20%
O=c1c(-c2cc(F)cc(F)c2)nc2cnc(N3CCNCC3)nc2n1-c1ccccc1	-6%
Cc1noc(C)c1-c1nc(NCc2cccnc2)c2ccccc2n1	-24%
COc1ccc(C(=O)N2CCC3(CC2)CN(C(=O)Nc2ccccc2)C3)cc1	-15%
COc1ccc2[nH]cc(CCNc3ncncc3-c3ccc4c(c3)OCO4)c2c1	-49%
O=C(c1cc(C(F)(F)F)cc(C(F)(F)F)c1)N1CCC2(CC1)CN(c1ccccn1)C2	?
CN(Cc1ccco1)c1nc(-c2ccccc2Cl)nc2ccccc12	-30%
COC(=O)C1NC(=O)N2C(C(=O)OC)C(C)(C)S[C@H]12 (some centres undefined)	6%
Cc1cc2c(c(-c3cnccn3)c1)OC(CNC(=O)c1ccccc1C(F)(F)F)C2 (centres undefined)	-6%
Nc1nc2c(nc(Cl)n2C2OC(CO)C(O)C2O)c(=O)[nH]1 (centres undefined)	-6%
O=C(N[C@@H]1CCC(=O)N(CC[C@H](Sc2ccccc2)c2ccccc2)CC1)OCc1ccccc1	-23%
COc1cccc(Cn2c(=O)c(-c3cccs3)nc3cnc(OCc4ccccc4)nc32)c1	-1%
CCCN=C(N)NCCC[C@H](N)C(=O)O	-23%
O=c1[nH]c2cc(Cl)ccc2c(O)c1-c1cccc(Oc2ccccc2)c1	?
COc1ccccc1C1CN(CC(=O)N2CCC(C(O)c3ccccn3)CC2)Cc2ccccc2O1 (centres undefined)	-34%
COc1ccc(-c2cccc3c2OC(CNC(=O)c2ccccc2-n2cccn2)C3)nn1 (centres undefined)	-28%
Nc1nc(O)c2ncn([C@H]3CC[C@@H](CO)O3)c2n1	-15%
N#Cc1cccc(NC(=O)N2CC[C@@]3(CCCN(C(=O)c4cc(C(F)(F)F)cc(C(F)(F)F)c4)C3)C2)c1	-34%
CCN(CCO)C(=O)c1cnn(-c2ncc3c(n2)-c2ccccc2CCC3)c1C1CC1	-20%
COC(=O)N1CCC2(CCCN(c3ccc(-c4ccccc4)cc3)C2)CC1	-8%
Cc1cc(C(=O)Nc2cccc(-c3nc(CNC(=O)c4sc(C)nc4C)c(C)o3)c2)c(C)o1	-3%
COc1cc(C)c(CN2C[C@H](Sc3ccccn3)C[C@H]2C(=O)N(C)C)cc1C	?
Cc1nc(NCc2c(F)cccc2F)sc1-c1ccn(CCN2CCOCC2)n1	-13%
C[C@]12CC[C@@H]3c4ccc(O)cc4CC[C@H]3[C@@H]1C[C@@H](O)[C@@H]2O	-8%
Cc1noc(C)c1-c1cc(NCCN2CCOCC2)ncn1	-2%
Cc1ccc(CN2CCc3nnc(C(NC(=O)c4ccoc4)C(C)C)n3CC2)cc1C (centres undefined)	?
O=C(c1csnn1)N1CCC2(CCCN(Cc3ccccc3)C2)CC1	-17%
Cc1cnc(-n2ncc(C(=O)NCCN3CCOCC3)c2C2CC2)nc1-c1cccs1	?
COC(=O)[C@@H](N)Cc1ccc(O)c(O)c1	?
C#C[C@]1(OC(C)=O)CC[C@H]2[C@@H]3CCC4=CC(=O)CC[C@@H]4[C@H]3CC[C@@]21C	?
CCCCN1CC[C@H]2C=CC[C@@H](C(=O)Nc3ccc(OC)cc3)[C@H]2C1=O	?

Some of the compounds tested; rates above refer to the full screens.
